# From PubChem
# AmpC inh no det: inhibitors of E. coli AmpC beta-lactamase without detergent. P00811. AmpC nitrocefin hydrolysis, absorbance 480 nm, no detergent; potencies from a single point are estimates. Potency, µM (titrated, usually from 28.7 µM), inactives show top-dose activity change, negative = inhibition. 71,000 tested, 1.8% active. AID 585; active = falling curve, for most hits resting on a single point; inconclusive = weak or doubtful change; inactive = flat or rising curve; note: % of control where 0% means no effect; about half of the hits show no inhibition at the top dose; a quarter of the inactives give rising signals
# Target sequence (P00811 whole entry, looked up): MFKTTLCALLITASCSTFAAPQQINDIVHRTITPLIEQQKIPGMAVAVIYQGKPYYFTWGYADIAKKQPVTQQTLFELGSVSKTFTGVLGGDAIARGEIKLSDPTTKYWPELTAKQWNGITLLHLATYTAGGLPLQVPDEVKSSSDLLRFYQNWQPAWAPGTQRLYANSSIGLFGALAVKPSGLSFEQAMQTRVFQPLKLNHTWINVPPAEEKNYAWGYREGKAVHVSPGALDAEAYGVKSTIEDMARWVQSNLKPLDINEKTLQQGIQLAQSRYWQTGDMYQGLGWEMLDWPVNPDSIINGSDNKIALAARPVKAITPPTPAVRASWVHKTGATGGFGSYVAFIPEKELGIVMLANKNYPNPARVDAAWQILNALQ
#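 Enzyme, pH 7.0 phosphate. Compound titrations were pre-incubated with AmpC for 15 min at room temperature before nitrocefin (stock 800 uM) addition; product formation was recorded at 480 nm every 20 s for 4 min.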
# Starred values were filed as active, the others as inactive; ? = inconclusive; & = joins results of further samples; [ ] = remark or other dose. Potency is the fitted concentration of half-maximal effect. The list is partial, so the mix of outcomes need not match the whole.
SMILES,AmpC inh no det
CC[C@H](C)C(=O)O[C@@H]1CCC=C2C=C[C@H](C)[C@@H](CC[C@H]3C[C@@H](O)CC(=O)O3)[C@H]21,128%
CSc1ncccc1C(=O)OCC(=O)NC(=O)NCCC(C)C,-8%
COc1ccc(-c2nnc(SCc3nnc(-c4ccccc4)o3)n2C)cc1OC,-4%
CCNC(=O)C1CC(=O)N(Cc2ccc(F)cc2)C(=Nc2ccc(OC)cc2)S1 (stereo not drawn),59%
O=C1CSc2ccccc2N1Cc1ccc(F)cc1,-8%
CCCN(CCC)C(=O)COc1cc(=O)n(CC)c2ccccc12,44%
Cc1cc(=O)oc(C)c1C(=O)NCc1ccc(F)cc1,22%
O=C(c1ccccc1F)N(Cc1ccccc1)C1CCS(=O)(=O)C1 (stereo not drawn),22%
C[C@]12C=CC(=O)C=C1CC[C@@H]1[C@@H]2C(=O)C[C@@]2(C)[C@H]1CC[C@]2(O)C(=O)CO,1%
C[C@@H](C(=O)O)c1ccc(-c2ccccc2)c(F)c1,2%
O=C(CN(C(=O)CNS(=O)(=O)c1ccccc1)c1ccc2c(c1)OCCO2)NCc1ccco1,8%
CCCn1nnc(NC(=O)COc2cc(C)ccc2C(C)C)n1,30%
CS(=O)(=O)N(CC(=O)N1CCN(c2cccc(Cl)c2)CC1)c1ccccc1,68%
O=C(c1ccc(C23CC4CC(CC(C4)C2)C3)o1)N1CCOCC1,96%
CCc1ccccc1NC(=O)CN(C)C(=O)CN1C(=O)NC2(CCCCCC2)C1=O,19%

# Six entries picked at random from the list so far:
SMILES,AmpC inh no det
CCNC(=O)C1CC(=O)N(Cc2ccc(F)cc2)C(=Nc2ccc(OC)cc2)S1 (stereo not drawn),59%
O=C1CSc2ccccc2N1Cc1ccc(F)cc1,-8%
COc1ccc(-c2nnc(SCc3nnc(-c4ccccc4)o3)n2C)cc1OC,-4%
CCCn1nnc(NC(=O)COc2cc(C)ccc2C(C)C)n1,30%
CS(=O)(=O)N(CC(=O)N1CCN(c2cccc(Cl)c2)CC1)c1ccccc1,68%
CCCN(CCC)C(=O)COc1cc(=O)n(CC)c2ccccc12,44%

# Additional compounds:
SMILES,AmpC inh no det
Cc1cnc(CNc2ccnc(-c3ccccc3C)n2)cn1,11%
Cc1ccc2nc3c(cc(C(=O)NCc4ccccc4)c(=N)n3CCCn3ccnc3)c(=O)n2c1,31%
O=C(Nc1ccc2oc(=O)c(C(=O)O)cc2c1)Oc1ccccc1,5%[5.75 µM]
CC1=C(/C=C/C(C)=C/C=C/C(C)=C/C=O)C(C)(C)CCC1,29%
Cc1ccc(Cl)c(OCC(O)CN(CCO)CCO)c1 (stereo not drawn),9%
Cc1cccc(OCCNc2nc3c(c(=O)n(C)c(=O)n3C)n2C)c1,36%
Oc1ccc2oc3c(c2c1/C=N/n1cnnc1)CCCC3,6%
c1ccc2c(c1)c1c3n2CCNC3CCC1 (stereo not drawn),11%
COc1ccc(C2CC(=O)C(C=NCCO)=C(O)C2)cc1OC (stereo not drawn),-2%
c1cncc(-c2nc3ccccc3o2)c1,-6%
CCOC(=O)CNC(=O)c1cn(CC(C)C)c(=O)c2cc(OC)c(OC)cc12,18%
Cn1c(=O)oc2cc(S(=O)(=O)NCc3ccncc3)ccc21,-13%
Cc1cc(C)nc(SCC(=O)Nc2ncc3c(n2)CC(C)(C)CC3=O)n1,25%
O=C(NCCOc1nc(N2CCCCC2)nc(N2CCOCC2)n1)Nc1ccccc1,59%
CN1CCN(CC(=O)Nc2cccc3ccccc23)CC1,-2%[5.75 µM]

# Reformatted: 4 of the compounds above.
Cc1cnc(CNc2ccnc(-c3ccccc3C)n2)cn1
  AmpC inh no det = 11%
Cc1ccc2nc3c(cc(C(=O)NCc4ccccc4)c(=N)n3CCCn3ccnc3)c(=O)n2c1
  AmpC inh no det = 31%
O=C(Nc1ccc2oc(=O)c(C(=O)O)cc2c1)Oc1ccccc1
  AmpC inh no det = 5%[5.75 µM]
CC1=C(/C=C/C(C)=C/C=C/C(C)=C/C=O)C(C)(C)CCC1
  AmpC inh no det = 29%

# New compounds follow.
SMILES,AmpC inh no det
O=C(c1ccncc1)N1CCN(C(=O)c2ccco2)CC1,-9%
O=C(Cc1nc2ccccc2[nH]1)NCc1ccco1,2%
COC(=O)C1CCN(C(=O)COc2cc3sc(C)nc3c3sccc23)CC1,92%
CCOC(=O)c1ccc(NC(=O)CC2Sc3ncnn3C2=O)cc1 (stereo not drawn),6%
O=C(COc1ccccc1)Nc1ccc(Cl)c(-c2nc3ncccc3o2)c1,5%
Cc1ccc(-n2c(N)c(C(N)=O)sc2=S)c(C)c1,-8%
CN1CCN2c3ccccc3Cc3ccccc3[C@@H]2C1,72%
CC(C)(C)OC(=O)N1CCN(c2ccc(NC(=O)c3cc4ccccc4oc3=O)cc2)CC1,1%
Cc1cc(C)c2nc(C(F)(F)F)nc(N3CCN(C(=O)c4ccco4)CC3)c2c1,86%
Clc1ccccc1-c1cc(NCCN2CCOCC2)ncn1,8%
COc1ccc(CCNC(=O)c2nnn(-c3ccccc3OC)c2N)cc1OC,37%
CC(=O)c1c(O)cc(C)n(Cc2ccccc2)c1=O,4%
O=C(Nc1cccc(O)c1)c1ccc(Br)c(S(=O)(=O)N2CCCCC2)c1,-11%
O=C(NCCc1ccc(Cl)cc1)C1CCN(c2cnccn2)CC1,-16%
COC(=O)C1=C2SC(C)C(=O)N2C(N)=C(C#N)C1c1cc(OC)c(OC)c(OC)c1 (stereo not drawn),-5%
COc1ccc(OC)c(C(c2nnnn2CC2CCCO2)N2CCN(C3CCCC3)CC2)c1 (stereo not drawn),-3%
CCOc1ccccc1NC(=O)c1ccc(S(=O)(=O)N2CCOCC2)cc1,70%
COC1CCCCC1NS(=O)(=O)c1ccc(Cl)cc1 (stereo not drawn),-1%
O=S(=O)(c1cccc(-c2nnc(-c3cccnc3)o2)c1)N1CCCCC1,20%
O=S(=O)(c1ccc(Cl)s1)N1CCN(C/C=C/c2ccccc2)CC1,13%
CCOC(=O)C1CCN(c2ncnc3c2cnn3-c2ccccc2)CC1,70%
CCCC(c1nnnn1C1CCCC1)N1CCN(C(=O)c2ccco2)CC1 (stereo not drawn),44%
Nc1nc2ccc(C(=O)Nc3ccccc3)cc2s1,?
COC(=O)c1cc2c(cc1NC(=O)CSCCc1ccccn1)OCO2,25%
CCc1nnc(NC(=O)CSc2nnc(-c3ccoc3C)n2-c2cccc(C)c2)s1,48%
c1cnc(-c2nnc3n2CCCCC3)cn1,-11%
c1ccc(N=NNc2ccccc2)cc1,1%
Sc1ccc2ccccc2c1CNCc1ccccc1,-10%[5.75 µM]
O=C(NCc1ccccn1)c1c(O)c2cccc3c2n(c1=O)CC3,118%
CCOC(=O)CSc1nnc(CNC(=O)c2ccc(OC)cc2OC)n1C,-8%
COc1ccc(C)cc1S(=O)(=O)N(CC(=O)N1CCOCC1)Cc1ccccc1,64%
COc1ccc(-c2nnc(SCC#CCO)o2)cc1OC,-3%
COc1cccc2c(=O)c(C(=O)NCc3cccs3)c[nH]c12,-5%
O=C(CSc1nnc(-c2ccc(O)cc2)n1Cc1ccco1)N1CCc2ccccc2C1,-2%
O=C(NCCCN1CCN(Cc2ccccc2)CC1)C1CCN(S(=O)(=O)N2CCCC2)CC1,12%
COc1ccc(CNc2cc(-c3cccc(C#N)c3)ncn2)c(OC)c1,38%
COc1cc(NC(=O)Cc2nn(C)c(=O)c3ccccc23)cc(OC)c1,29%
COC(=O)c1ccc(CSc2nc(C)nc3c2c(=O)n(C)c(=O)n3C)o1,12%
COc1cccc(CNC(=O)C2CCN(C(=O)N(C)C)CC2)c1,-6%
COc1ccc(-c2[nH]c(-c3ccc(F)cc3)nc2SCC(=O)NCc2ccco2)cc1OC,72%
O=C(Cn1cc2c(n1)CCCCC2)N1CCCCC1,2%
CN(C1CCCCC1)S(=O)(=O)c1ccccc1,-3%
c1cnc(N2CCSCC2)nc1,-8%
CCC(Oc1ccc2ccccc2c1)C(=O)O (stereo not drawn),3%
COc1ccc(CNC(=O)c2ccc3nccnc3c2)cc1,-6%
Cc1ccc(N[C@H](c2ccccc2)c2ccc3cccnc3c2O)cc1,-15%[5.75 µM]
CCOC(=O)C1=C(C)NC(=O)NC1c1cn(-c2ccccc2)nc1-c1cccs1 (stereo not drawn),48%
CC(C)(C)NCC1(CO)SC(N)=NC1=O (stereo not drawn),-6%
CN(C)C(CNS(=O)(=O)c1ccc(Br)cc1)c1cccnc1 (stereo not drawn),5%
O=C(OCC(=O)N1CCN(C(=O)c2ccco2)CC1)c1cc(=O)c2ccccc2o1,2%
CC1(C)CC(=O)c2cc(OCC(=O)NCC3CCCO3)ccc2O1 (stereo not drawn),-4%
O=C(CCCC(=O)n1cnc2ccccc21)n1cnc2ccccc21,-2%
COc1ccc(OC)c(-n2nnnc2SCC(=O)NCc2ccc3c(c2)OCO3)c1,0%
Cc1cc(C)c2c3c(sc2n1)C(=O)N(C)CC(=O)N3,-3%
CN1CCN(c2ccnc(-c3ccc(N(C)C)cc3)n2)CC1,67%
CCCOc1ccc(NC(=O)C2CCCNC2=O)cc1 (stereo not drawn),6%
Cc1ccc(C(=O)COC(=O)CNC(=O)c2ccco2)cc1,6%
Cc1cc(C)nc(NC2=NCC(=O)N2c2ccc3c(c2)OCCO3)n1,6%
c1cncc(-c2nccc(NCc3cccs3)n2)c1,2%
CCn1cc(C(=O)NCc2ccco2)c(=O)c2cc(S(=O)(=O)N3CCCCCC3)ccc21,108%

# Reprinted from the part before: three entries; new compounds follow.
SMILES,AmpC inh no det
Cc1cc(C)nc(NC2=NCC(=O)N2c2ccc3c(c2)OCCO3)n1,6%
c1cncc(-c2nccc(NCc3cccs3)n2)c1,2%
CCn1cc(C(=O)NCc2ccco2)c(=O)c2cc(S(=O)(=O)N3CCCCCC3)ccc21,108%
COCCn1c(=O)c(-c2cccs2)nc2cnc(N3CCOCC3)nc21,12%
Fc1ccc(C(c2ccc(F)cc2)N2CCN(C/C=C\c3ccccc3)CC2)cc1,17%
O=P(O)(O)COc1ccccc1O,-6%
O=C(CN1CCOCC1)N1CCc2ccccc2C(c2ccccc2)C1 (stereo not drawn),98%
COc1ccc(S(=O)(=O)N(CC(=O)N2CCN(C)CC2)c2ccccc2)cc1OC,13%
Cc1ccc(N)c(N)c1,-3%
O=c1c2ccccc2c2ccccc2c(=O)n1CC1CCCO1 (stereo not drawn),24%
O=C(Cn1c(=O)oc2ccccc21)Nc1ccc2c(c1)OCCO2,-2%
CCCN1CCO[C@@H]2c3cc(O)ccc3OC[C@H]21,5%&0%
CCOc1ccc(NC(=O)CSc2nnnn2CC(=O)O)cc1,-5%
COc1ccc2ccccc2c1CN1CCN(C(=O)c2ccccc2)CC1,114%
Clc1cccc(CSc2nnc(-c3ccccn3)n2Cc2ccco2)c1,21%
Cc1c(/C(O)=C2/C(=O)C(=O)N(CCN3CCOCC3)C2c2cccs2)cnn1-c1ccccc1 (stereo not drawn),2%
CC(C)NC(=O)CN(CCc1ccccc1)S(C)(=O)=O,3%
COC(=O)[C@@]1(Cc2ccc(OC)cc2)[C@H]2c3cc(C(=O)N(C)C)n(Cc4c(CO)[nH]cc(C)c4=O)c3C[C@H]2CN1C(=O)c1ccccc1,162%
COc1ccccc1OCCSc1nnnn1-c1ccc(C)cc1,8%

# 5 compounds out of the list, arranged by formula weight, low to high.
SMILES,AmpC inh no det
Cc1ccc(N)c(N)c1,-3%
O=C(Cn1c(=O)oc2ccccc21)Nc1ccc2c(c1)OCCO2,-2%
COc1ccccc1OCCSc1nnnn1-c1ccc(C)cc1,8%
Fc1ccc(C(c2ccc(F)cc2)N2CCN(C/C=C\c3ccccc3)CC2)cc1,17%
COc1ccc(S(=O)(=O)N(CC(=O)N2CCN(C)CC2)c2ccccc2)cc1OC,13%
